# CCT modulator – cytosolic chaperonin activity modulation; purified chaperonin ATPase assay, HTRF ADP detection, 30 min; activity change, % (no concentration beside the values), hits read low; 360,000 tested, 0.3% active; in the data active means activity change below about -30%; further: on the % scale 0 is the no-effect control and ±100 the full control effect
#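 ATPase activity: ADP formed was measured by HTRF Transcreener (665/615 nm ratio) after 30 min at 37 deg C with 10 uM ATP. Compounds screened at one 76 uM concentration against 40 or 20 nM TRiC in Tris pH 7.4/KCl/MgCl2/DTT buffer.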
# PI5P4Ka inh – inhibitors of human PI5P4K alpha; P48426; PI5P4Kalpha enzyme, ADP-Glo luminescence, 60 min; active compounds read low; max response, %; 330,000 tested, 1.2% active; active means max response of -50% or lower; inconclusive means between -30% and -50%; inactive means -30% or higher; further: value at the top dose of about 77 µM; on the % scale 0 is the no-effect control and ±100 the full control effect
#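 Single end-point luminescence (ADP-Glo) quantified ADP from PI5P4Kalpha turnover; ATP 5 microM final, 1 h at RT, 0.1% CHAPS and 0.28 mM EGTA in HEPES pH 7.4.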
# EPAC1 antag – blocks human EPAC1 exchange factor. O95398. EPAC1 GEF assay, Rap1b-BODIPY-GDP exchange fluorescence. Potency, µM (doses to about 115 µM), for inactives: top-dose activity change, negative = inhibition, actives largely listed as inhibitors. 360,000 tested, 0.14% active. AID 720709;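 further: potency means the concentration at half of the fitted maximal effect; plate controls were vehicle for no effect and positive control for full effect; nearly all actives have a fitted effect of over 50% in size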
# EPAC1 agonist – EPAC1 (human) agonism; EPAC1 agonist qHTS, biochemical assay; response scale: 100% = response to 6.5 mM cAMP; 360,000 tested, 0.073% active; O95398; AID 720707; Potency, µM (doses to about 154 µM), inactives show at the top dose activation, usual class: activators; further: potency means the concentration at half of the fitted maximal effect; nearly all actives have a fitted effect of over 60% in size
#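 EPAC1 100 nM, Rap1B–BODIPY-GDP 250 nM, unlabeled GDP 50 uM; compound titration; 5 min RT; kinetic read ex480/em540 at 5-min intervals ×30 min; data normalized to 6.5 mM cAMP agonist control.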
# WRN helicase inh – blocks human WRN helicase | Potency, µM (doses to about 114 µM), inactives show top-dose activity change, negative = inhibition, hits mostly inhibitors | Q14191 | 360,000 tested, 0.46% active | WRN helicase unwinding, fluorescent forked duplex, kinetic; further: potency means the concentration at half of the fitted maximal effect; on the % scale 0 is the no-effect control and ±100 the full control effect; nearly all actives have a fitted effect of over 55% in size
#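 WRN at 20 nM final preincubated with compound 15 min at room temperature; reaction started with 100 nM fluorophore/quencher forked duplex oligonucleotide and 2 mM ATP final. Unwinding followed kinetically by red fluorescence (ex 525, em 598 nm).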
# IL-2 act – IL-2 activation | activation, % (series mostly up to about 46 µM) | 360,000 tested, 0.065% active | IL-2 activation reporter assay, cell-based qHTS; stimulated with anti-CD3/CD4/CD28 beads; in transgenic mouse T cells; in the data active means activation above about 50%; inconclusive means mostly about 30% to 49%; further: 0% is about no effect
#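 Unstimulated transgenic mouse T cells preincubated 60 min with compound, then stimulated with anti-CD3/anti-CD4-coated beads plus anti-CD28 for 18 h at 37 degrees C. IL-2 response read as EGFP and DsRed fluorescence by plate cytometry.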
# PLK1 PBD block – PLK1 (human) polo-box domain binding inhibition. Potency, µM, inactives show max response, negative = inhibition, hits mostly inhibitors. 360,000 tested, 2.8% active. P53350. Plk1 PBD binding of FITC phosphopeptide, fluorescence polarization; further: potency means the concentration at half of the fitted maximal effect; series mostly up to about 57 µM; on the % scale 0 is the no-effect control and ±100 the full control effect; nearly all actives have a fitted effect of over 65% in size
# Target sequence (P53350 whole entry, looked up, the tested form may be a part): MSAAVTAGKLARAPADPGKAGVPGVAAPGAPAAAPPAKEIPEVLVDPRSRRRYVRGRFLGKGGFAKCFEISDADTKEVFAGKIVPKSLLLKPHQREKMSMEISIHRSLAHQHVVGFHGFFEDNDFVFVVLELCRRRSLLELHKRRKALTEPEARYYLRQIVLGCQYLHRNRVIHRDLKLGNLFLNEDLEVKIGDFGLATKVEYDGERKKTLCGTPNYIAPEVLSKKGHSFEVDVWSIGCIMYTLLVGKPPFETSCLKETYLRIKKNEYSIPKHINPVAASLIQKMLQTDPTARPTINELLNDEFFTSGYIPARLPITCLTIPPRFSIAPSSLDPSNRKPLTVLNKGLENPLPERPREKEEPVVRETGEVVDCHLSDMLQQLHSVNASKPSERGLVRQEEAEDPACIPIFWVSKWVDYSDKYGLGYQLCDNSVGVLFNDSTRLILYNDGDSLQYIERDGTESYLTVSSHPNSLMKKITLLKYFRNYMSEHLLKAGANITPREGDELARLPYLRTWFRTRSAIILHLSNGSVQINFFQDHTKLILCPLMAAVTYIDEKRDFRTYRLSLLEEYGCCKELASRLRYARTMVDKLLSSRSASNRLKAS
# * = called active by the depositor; ? = inconclusive; nt = not tested or not shown; [ ] = another dose, or the depositor's remark. Unless noted, the call rests on the fitted dose curve; in most records, active means well fitted curve in the direction sought with a large enough effect; inconclusive means small, poorly fitted or top-dose-only effect, or another doubt; inactive means no such curve, though single readings can be large; an effect the other way counts as inactive or inconclusive. Only part of the results is shown. The share of hits here may be higher or lower than overall.
1	Cc1ccc(C2(c3noc(CN4CCC(c5ccncc5)CC4)n3)CCCC2)cc1
2	O=C(O)c1cnc(-c2ccccc2)nc1Sc1ccc(Cl)cc1
3	O=C(c1ccccn1)c1cc2ccccc2n1S(=O)(=O)c1ccccc1
4	COc1ccc2c(c1)CCc1c(C(=O)NCCN3CCOCC3)noc1-2
5	COc1ccccc1-c1ncn(Cc2cccc(-c3ccccc3)c2)c1-c1ccco1
6	Cc1cccc(C2(c3cccc(C)c3)OC(=O)c3ccccc32)c1
7	O=C1N(c2ccc(Cl)cc2)C(c2ccccc2)N2CCCN12 (stereo not given)
8	CCOc1ccc(S(=O)(=O)N2CCCCC2)c(C)c1C
9	CCOC(=O)c1c(C)nc2ccccc2c1C
10	CCOC(=O)C1=C(C)NC(C)=C(C(=O)OCC)C1c1ccncc1
Assay by compound	1	2	3	4	5	6	7	8	9	10
CCT modulator	-1.7	0.2	1.0	-0.6	nt	-0.9	0.9	-1.2	0.3	4.0
PI5P4Ka inh	16	14	1	nt	-21	10	1	0	-14	0
EPAC1 antag	-15%	-6%	0%	0%	-16%	1%	6%	-4%	13%	0%
EPAC1 agonist	0%	2%	-1%	1%	10%	8%	-10%	-11%	12%	-5%
WRN helicase inh	-1%	-4%	-8%	-2%	-16%	1%	-10%	3%	4%	14%
IL-2 act	-2.1	-3.5	0.0	0.3	-0.9	-2.8	-0.1	0.0	-0.4	-2.2
PLK1 PBD block	4%	21µM*	3%	-9%	-12%	4%	19µM*	-2%	-2%	3%

11	COc1ccc(-c2nc3ccccc3nc2-c2ccc(OC)c(OC)c2)cc1OC
12	O=C(c1noc2c1CCc1ccccc1-2)N1CCCc2ccccc21
13	COC(=O)c1ccc2nc(-c3ccc(C#N)cc3)c(Cc3ccsc3)n2c1
14	CN1CCC(NC(=O)C2(C)CCN2Cc2ccc3ccccc3c2)CC1 (stereo not given)
15	CCCCNC(=O)C1(C)CCCCN1Cc1ccc2ccccc2c1 (stereo not given)
16	COc1ccc(C2CC(=O)Oc3cc(C)c(Cl)c(C)c32)cc1 (stereo not given)
17	CCCC[C@@H]1C=C(C(=O)O)[C@H](c2ccc(Br)cc2)N1S(=O)(=O)c1ccc(C)cc1
18	Cc1cc(C)c2ccc(=O)n(CC(=O)N/N=C/c3ccccc3Cl)c2n1
19	CCOC(=O)C1=C(C)N(C)C(C)=C(C(=O)OCC)C1c1ccsc1
20	O=C(O)CCNC(=O)c1ccc(NC(=O)C(c2ccccc2)c2ccccc2)cc1
Assay by compound	11	12	13	14	15	16	17	18	19	20
CCT modulator	-1.6	-0.9	-6.7	0.4	-1.8	0.5	-2.2	0.8	-0.3	1.3
PI5P4Ka inh	-1	nt	-5	11	1	-6	-3	-2	3	-3
EPAC1 antag	-1%	-9%	-12%	-8%	-15%	6%	-13%	11%	-12%	-5%
EPAC1 agonist	19%	22%	6%	-2%	-7%	-5%	-22%	2%	-18%	4%
WRN helicase inh	2%	-10%	-3%	-5%[57.1 µM]	3%[57.1 µM]	-7%	-8%	-11%	-18%	-1%
IL-2 act	-0.3	1.0	0.0	0.5	-0.6	-0.5	-0.3	0.4	-4.9	-0.6
PLK1 PBD block	-15%	3%	1%	-3%	-14%	-8%	?	-3%	-1%	-14%

21	Cc1ccc(C2N(c3ccc(Cl)cc3)C(=O)N3CCCN23)cc1 (stereo not given)
22	O=C1N(c2cccc3ccccc23)C(c2ccccc2)N2CCCN12 (stereo not given)
23	CC1=CC(C)C2C(=O)N(CCCN(C)C)C(=O)C2C1 (stereo not given)
24	COc1cc(C)c(Cl)cc1S(=O)(=O)N1CCCC1
25	COc1ccc(C2SCC(=O)N2c2c(C)n(C)n(-c3ccccc3)c2=O)c(OC)c1 (stereo not given)
26	CCCCn1nnnc1C(c1cc2ccccc2o1)N1CCCC1 (stereo not given)
27	COc1ccc(Sc2nc(-c3ccccc3)ncc2C(=O)O)cc1
28	Cn1ccc2c(N3CCCCCC3)cc3c(c21)C1CCC3O1 (stereo not given)
29	CC1(C(=O)NCc2cccc(C(F)(F)F)c2)CCN1Cc1ccc2ccccc2c1 (stereo not given)
30	CCN(Cc1cc(=O)oc2cc(C)ccc12)c1ccccc1
Assay by compound	21	22	23	24	25	26	27	28	29	30
CCT modulator	-0.3	-0.7	0.4	1.1	0.0	-1.6	1.1	-3.0	1.5	-3.1
PI5P4Ka inh	2	0	6	2	-5	3	12	-1	28	9
EPAC1 antag	-11%	18%	-2%	-5%	1%	0%	-5%	2%	-9%	0%
EPAC1 agonist	3%	-5%	0%	4%	-2%	1%	-9%	1%	-14%	7%
WRN helicase inh	6%	-30%	-22%	3%	3%	-5%	3%[57.1 µM]	4%	-6%[57.1 µM]	-1%
IL-2 act	0.2	-4.1	0.8	-0.3	-2.0	-0.4	1.0	0.8	-0.6	-0.1
PLK1 PBD block	-3%	-11%	-2%	-7%	-7%	-3%	?	-3%	-9%	-11%

# 7 entries picked at random from those above, as already listed:
15	CCCCNC(=O)C1(C)CCCCN1Cc1ccc2ccccc2c1 (stereo not given)
6	Cc1cccc(C2(c3cccc(C)c3)OC(=O)c3ccccc32)c1
7	O=C1N(c2ccc(Cl)cc2)C(c2ccccc2)N2CCCN12 (stereo not given)
24	COc1cc(C)c(Cl)cc1S(=O)(=O)N1CCCC1
8	CCOc1ccc(S(=O)(=O)N2CCCCC2)c(C)c1C
21	Cc1ccc(C2N(c3ccc(Cl)cc3)C(=O)N3CCCN23)cc1 (stereo not given)
17	CCCC[C@@H]1C=C(C(=O)O)[C@H](c2ccc(Br)cc2)N1S(=O)(=O)c1ccc(C)cc1
Assay by compound	15	6	7	24	8	21	17
CCT modulator	-1.8	-0.9	0.9	1.1	-1.2	-0.3	-2.2
PI5P4Ka inh	1	10	1	2	0	2	-3
EPAC1 antag	-15%	1%	6%	-5%	-4%	-11%	-13%
EPAC1 agonist	-7%	8%	-10%	4%	-11%	3%	-22%
WRN helicase inh	3%[57.1 µM]	1%	-10%	3%	3%	6%	-8%
IL-2 act	-0.6	-2.8	-0.1	-0.3	0.0	0.2	-0.3
PLK1 PBD block	-14%	4%	19µM*	-7%	-2%	-3%	?

# (further entries)
31	CCOC(=O)C1Oc2ccccc2C(c2ccc(C)cc2)=C1C(=O)OC (stereo not given)
32	COc1ccc(S(=O)(=O)N2CCCC2)c2ccccc12
33	CCOC(=O)C1=C(C)N(C)C(C)=C(C(=O)OCC)C1c1ccccn1
34	CCCCN(CC)CCNC(=O)c1cc2c(-c3ccccc3F)nn(C)c2s1
35	CCCCCc1c(-c2ccccc2OC)ncn1CCc1ccccc1OC
36	Cn1ccc2c(-c3ccc(CO)cc3)cc3c(c21)C1CCC3O1 (stereo not given)
37	O=C(COc1ccc(F)cc1Br)NCC1COc2ccccc2O1 (stereo not given)
38	O=C(O)c1cnc(-c2ccccc2)nc1Sc1ccc(Cl)cc1Cl
39	COc1ccc2c(c1)CCc1c(C(=O)NCC(C)C)noc1-2
40	O=C(Nc1ccccc1)c1cccnc1N1CCCC1
Assay by compound	31	32	33	34	35	36	37	38	39	40
CCT modulator	0.5	-0.1	-2.5	2.2	-0.6	-1.7	-0.4	-3.8	0.2	-0.3
PI5P4Ka inh	-2	2	3	5	-4	0	7	nt	13	nt
EPAC1 antag	-2%	-10%	-2%	?	-2%	-14%	-12%	7%	-27%	-1%
EPAC1 agonist	-18%	11%	2%	7%	-4%	20%	6%	8%	-13%	15%
WRN helicase inh	-9%	-14%	4%	6%	-11%	2%	-2%	3%	-1%	-2%
IL-2 act	0.2	-0.4	1.4	-1.0	-0.6	-0.2	0.9	2.3	-2.4	-2.1
PLK1 PBD block	-6%	-4%	-8%	-2%	-3%	-15%	-5%	27µM*	-8%	-9%

# Screens: PubChem, National Center for Advancing Translational Sciences (NCATS)
